# High-throughput results as filed in PubChem.
# ClpP mod – qHTS Assay for Activators of ClpP. ATP-dependent Clp protease proteolytic subunit (Bacillus subtilis (strain 168)), P80244. Potency, µM (highest dose often 57.5 µM), for inactives: at the top dose activity change, negative = active. AID 651965, 2013. 340,000 tested, 1.9% active. purified B. subtilis ClpP, FRET peptide cleavage, 20 min; active = well fitted falling curve with a large enough effect; inconclusive = small, poorly fitted or top-dose-only effect; inactive = no such curve, though single readings can be large or run the other way; further: potency means the concentration at half of the fitted maximal effect; the source files actives as falling curves though it sought activators and does not explain the sign; nearly all actives have a fitted effect of over 65% in size; many hits overshoot -100%
# Target sequence (P80244 whole entry, looked up): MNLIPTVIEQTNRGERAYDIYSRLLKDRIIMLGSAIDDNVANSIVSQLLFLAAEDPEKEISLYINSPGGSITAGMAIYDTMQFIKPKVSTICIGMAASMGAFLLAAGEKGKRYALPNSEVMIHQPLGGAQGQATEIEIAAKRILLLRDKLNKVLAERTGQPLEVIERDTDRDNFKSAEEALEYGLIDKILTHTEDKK
#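 Purified B. subtilis ClpP, 10 microg/mL final in Tris/HCl pH8 with KCl, BSA, glycerol and Tween-20, cleaved an Abz/nitrotyrosine-quenched decapeptide. Fluorescence (ex 320, em 430) was read at 0 and 20 min at room temperature. Delta was normalized to 5.8 microM ADEP and DMSO/no-enzyme controls.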
# TRPML1 agonist – human mucolipin-1 channel agonism; TRPML1-expressing cells, Ca2+ dye fluorescence, FDSS; host cell line not named in the record; reference of the full effect not given here; activation, % (test concentration not listed); 410,000 tested, 0.12% active; AID 624414; in the data active = activation above about 50%; inconclusive = about 30% to 50%; inactive = below about 30%; further: 0% is about no effect; the text of the record puts the active cut at 80%
# Target sequence (Q9GZU1 whole entry, looked up): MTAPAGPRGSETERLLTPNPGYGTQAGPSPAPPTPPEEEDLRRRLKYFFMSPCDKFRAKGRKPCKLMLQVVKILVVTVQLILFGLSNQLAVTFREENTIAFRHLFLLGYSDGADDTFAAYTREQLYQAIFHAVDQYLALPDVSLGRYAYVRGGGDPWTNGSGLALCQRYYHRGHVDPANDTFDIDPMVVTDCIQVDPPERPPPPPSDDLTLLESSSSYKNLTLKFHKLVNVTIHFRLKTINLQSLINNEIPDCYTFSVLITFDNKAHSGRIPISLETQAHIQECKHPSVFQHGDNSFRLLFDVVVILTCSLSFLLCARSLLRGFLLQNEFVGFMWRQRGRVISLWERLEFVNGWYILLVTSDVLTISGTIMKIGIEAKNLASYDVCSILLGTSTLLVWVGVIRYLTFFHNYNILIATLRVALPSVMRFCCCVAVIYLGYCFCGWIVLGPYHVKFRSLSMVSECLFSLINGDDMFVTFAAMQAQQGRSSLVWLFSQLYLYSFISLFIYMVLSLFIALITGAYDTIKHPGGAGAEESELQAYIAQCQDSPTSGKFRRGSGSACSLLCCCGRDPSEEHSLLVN
#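 Kinetic FDSS Ca2+ read in Tet-induced TRPML1-DL cells (ABD Ca8 dye plus quencher, 45-90 min RT loading): baseline, then compound, then 110 s agonist window; EC80 agonist 54-4 at 4uM final added afterwards for a 110 s antagonist window.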
# Menin-MLL FL inh – menin-MLL binding inhibition, fluorescein peptide; Fluorescence polarization, fluorescein-MLL peptide displacement from menin; FP activity change, % at 61.4 µM; 290,000 tested, under 10 active; AID 1766; inconclusive = falling polarisation curve, or a change in total fluorescence; inactive = total fluorescence flat and polarisation flat or rising; no compound was filed as active; the % refers to the polarisation; negative = inhibition;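 further: % of control where 0% means no effect; inhibitors lower the polarisation; unlabelled MLL peptide was the positive control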
# TRPML1 inh – inhibitors of human TRPML1 channel; AID 624415; Q9GZU1; activity change, negative = inhibition, % (no concentration beside the values); TRPML1-inducible cells, Ca2+ dye fluorescence, FDSS; active compounds read low; inhibition of EC80 agonist-evoked calcium signal; 390,000 tested, 0.02% active; in the data active means activity change below about -50%; inconclusive means about -30% to -50%; inactive means above about -30%;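 further: stimulus is agonist 54-4 at its EC80 concentration; on the % scale 0 is the no-effect control and ±100 the full control effect; compound concentration not given in the record; the text of the record puts the active cut at -80%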
#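 Tet-induced TRPML1-DL cells loaded with Ca8 no-wash calcium dye were read kinetically on FDSS. Compound addition was followed by EC80 agonist 54-4 (4 uM final); inhibition was read over 110 s.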
# gsp agonist – activates gsp, the McCune-Albright syndrome mutation. 340,000 tested, 0.13% active. gsp mutant cells, cAMP HTRF, 30 min; control for the full effect not named in the record. Potency, µM (titrated, usually from 76.9 µM), without a hit: top-dose activation (cAMP increase), usual class: activators. AID 624287; active = well fitted activation curve with a large enough effect; inconclusive = small, poorly fitted or top-dose-only effect, or another doubt; inactive = no such curve, though single readings can be large or run the other way; cell line not stated here;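 further: phosphodiesterase inhibitor Ro 20-1724 added with compounds to block cAMP breakdown; potency means the concentration at half of the fitted maximal effect; nearly all actives have a fitted effect of over 60% in size; about a fifth of the inactives were tested at one dose only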
#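 Cells in DMEM/10% FBS with G418 were pretreated with compounds in DMSO plus […] (300 uM stock) for 30 min at 37C. cAMP was measured by HTRF (cAMP-d2 plus anti-cAMP antibody-K) after 30 min at room temperature.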
# gsp antag – gsp mutant antagonism; Potency, µM (titrated, usually from 76.9 µM), for the others: at the top dose activity change, negative = inhibition, usual class: inhibitors; 340,000 tested, 0.4% active; gsp-mutant cells, cAMP HTRF, 30 min; control for the full effect not named in the record; AID 624288; active = falling curve of any shape with a large fitted effect; inconclusive = falling curve, mostly with a smaller effect; inactive = flat or rising curve; cell line not stated here;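 further: intracellular cAMP measured with PDE inhibitor Ro 20-1724 present during compound exposure; potency means the concentration at half of the fitted maximal effect; on the % scale 0 is the no-effect control and ±100 the full control effect; nearly all actives have a fitted effect of over 65% in size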
#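 Measurement of cellular cAMP by homogeneous time-resolved fluorescence following a 30 min compound exposure at 37C. The PDE inhibitor […] was present throughout; the assay buffer was DPBS with 0.05% BSA and 0.005% Tween 20.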
# * = called active by the depositor; ? = inconclusive; · = no result given; [ ] = dose if it differs, or a comment.
SMILES,ClpP mod,TRPML1 agonist,Menin-MLL FL inh,TRPML1 inh,gsp agonist,gsp antag
O=C(c1cccs1)c1no[n+]([O-])c1C(=O)c1cccs1,2.0%,0.0,5.3,4,-1%[15.4 µM],?
Cc1ccc2c(c1)[C@H]1[C@H](CO2)[C@H](c2ccccc2)[C@]2(C)C(=O)N(Cc3ccc(Cl)cc3)CC(=O)N12,-1.9%,4.1,·,12,-14%,-28%
CCOC(=O)C1C(=O)OC(C)(C)C1C(CC)C(=O)c1c(C)cc(C)cc1C (configuration not stated),0.9%,6.1,0.8,-2,-22%,1%
COc1cccc(-n2ccnc2SCC(=O)Nc2ccccc2F)c1,·,1.0,9.1,-5,-21%[15.4 µM],-6%
O=C(NNC(=O)c1ccc(F)cc1F)c1ccc2c(c1)OCO2,·,0.3,-1.1,-15,0%[15.4 µM],9%
CC(C)N(Cc1ccccc1)C(=S)Nc1ccc(F)cc1,·,0.7,5.2,-10,-7%[15.4 µM],2%
Cc1nn(-c2ccccc2)c(Cl)c1/C=N/NC(=O)c1ccn[nH]1,0.7%,1.9,·,-14,19%,-1%
CCCCOC(=O)c1ccc(NC(=O)c2cc(Cl)ccc2OC)cc1,?,2.4,1.9,-9,-1%,-9%
CCOC(=O)c1cccc(NC(c2nnc(-c3ccccc3)o2)c2ccccc2F)c1 (configuration not stated),?,1.1,·,6,·,·
CCOC(=O)c1[nH]c(C)c(C(=O)NCc2ccccc2Cl)c1C,1.4%,-0.8,·,0,·,·
CCOC(=O)CSC1=N/C(=C\c2ccc(OC)c(OC)c2)C(=O)N1C,0.8%,0.9,7.6,-11,-5%,17%
COc1cc(Cl)c(C)cc1NC(=O)CCCn1c(=O)oc2ccccc21,-1.0%,3.8,5.9,3,0%,-7%
COc1cccc(OC)c1C(=O)Nc1cc(C)on1,-2.4%,0.5,10,7,-48%[inhibitor],-14%
Cn1cnnc1SCC(=O)Nc1ccc(Oc2ccccc2)cc1,-0.9%,0.7,·,-4,?,0%
COc1ccccc1N1CCN(CC(O)COCCOc2ccc(Br)cc2)CC1 (configuration not stated),-4.4%,0.3,4.9,-5,1%,16%
CCN(CC)C1CCN(C(=O)CCc2nnc(CCCCc3ccccc3)o2)C1 (configuration not stated),·,-0.4,0.0,22,-23%[15.4 µM],15%
Cc1sc2ncn(CC(=O)NCC3COc4ccccc4O3)c(=O)c2c1S(=O)(=O)N1CCCCC1 (configuration not stated),·,-0.2,0.2,-8,6%[15.4 µM],4%
O=c1c2sccc2n(Cc2cc(=O)n3ccccc3n2)c(=O)n1-c1cc(F)ccc1F,4.8%,1.5,·,12,·,·
O=C1[C@H]2C(c3ccccc3)=NN(c3ccccc3)[C@H]2C(=O)N1c1ccccc1,4.3%,-0.4,-1.3,-6,9%,8%
O=S(=O)(NC1CCCCC1N1CCN(c2ccc(F)cc2)CC1)c1ccccc1 (configuration not stated),-3.5%,1.8,·,12,?,4%
O=C(Nc1ccccc1F)c1ccc(CN2CCc3ccccc3C2)cc1,-0.9%,1.1,-0.3,-9,-2%,-4%
Cc1c(NC(=O)CSCc2ccc(Cl)cc2Cl)cccc1C(=O)O,-14%,0.6,-2.1,-4,-6%[15.4 µM],-3%
Cc1ccc(C)c(NC(=S)NC(=O)c2cncc(Br)c2)c1,-0.7%,0.1,·,4,-7%[15.4 µM],-7%
CCN(CC)CCCNCC(=O)Nc1cc(C)on1,-0.6%,1.1,-0.7,5,-46%[inhibitor],16%
O=C(Cc1ccc(NC(=O)C2CCN(C(=O)c3ccccc3)CC2)cc1)Nc1cccc(C(=O)N2CCCCC2)c1,-2.6%,0.8,·,-14,·,8%
COc1ccc(-c2cc3c(=O)n(CC(=O)Nc4cc(F)ccc4F)ccn3n2)cc1OC,25%,0.8,·,6,·,·
O=C(O)c1ccccc1C(=O)N1CCN(Cc2ccc3c(c2)OCO3)CC1,-2.1%,1.1,4.5,0,-16%,-1%
Cc1cc(Cl)ccc1OC(C)C(=O)Nc1cnn(CCCC(=O)O)c1 (configuration not stated),0.6%,0.0,·,18,12%,7%
CCN(CCO)Cc1csc2ccc(Cl)cc12,-2.9%,0.2,3.9,-10,13%,13%
CCCCn1c(NC(=O)c2ccc(Br)o2)c(S(=O)(=O)c2ccccc2)c2nc3ccccc3nc21,-20%,-0.3,5.4,-3,?,-19%
Cc1ccc2c(c1)c1nnc(SCC(=O)N3CCCc4ccccc43)nc1n2CC(=O)O,·,-0.5,-2.4,-1,0%[15.4 µM],14%
O=C1CC(N2CCSCC2)C(=O)N1c1ccccc1 (configuration not stated),·,-0.8,0.0,2,18%,8%
COc1ccccc1N1CCN(S(=O)(=O)CCNC(=O)c2cc(OC)c(OC)c(OC)c2)CC1,-3.6%,-0.4,-1.9,-15,-4%,7%
CCCCn1nc(C(=O)N(CC(C)C)c2c(N)n(CCCC)c(=O)[nH]c2=O)c2ccccc2c1=O,1.0%,-1.0,·,1,-13%,5%
COc1ccc(C(=O)CCC(=O)Nc2ccc(N3CCCCC3)cc2)cc1OC,·,0.4,0.2,-2,-8%[15.4 µM],-8%
Cc1nn(-c2ccccc2)c(N2CCCC2)c1/C=N/Nc1ccc(S(=O)(=O)Nc2ccccc2)cc1[N+](=O)[O-],-2.4%,-0.8,5.2,-22,-19%,-2%
CCN(CC)C(=O)CSc1nnc(-c2ccco2)o1,-0.7%,-0.1,5.5,28,-39%[inhibitor],3%
COc1ccc(C(C)(C)C)cc1NC(=O)C1CCCO1 (configuration not stated),0.8%,0.5,-5.7,?,?,9%
COc1ccc(OC(=O)c2c(C)nn(-c3ccccc3)c2C)cc1,-2.3%,0.8,-0.5,-4,-3%[15.4 µM],-17%
O=C(N/N=C\c1coc2ccccc2c1=O)c1ccco1,·,-0.1,2.7,-6,-7%[15.4 µM],10%
COc1ccc2nc(/N=C/c3c(C)[nH]n(-c4ccc(C)cc4C)c3=O)sc2c1,-1.5%,0.0,-1.4,-3,9%,?
CN1C(=O)NC(c2ccc(C(F)(F)F)cc2)C2=C1CC(C)(C)CC2=O (configuration not stated),-2.6%,1.9,-14,?,-1%,-2%
CCN(CC(=O)NCc1ccc(F)cc1)C(=O)C1CCN(S(=O)(=O)c2ccc(C(C)C)cc2)CC1,-1.0%,0.5,·,7,-35%,-7%
CCCN(CC(=O)Nc1ccccc1C)C(=O)CCCNC(=O)c1ccc(Cl)cc1,1.3%,-1.1,·,8,-56%[inhibitor],-5%
CC(/C=N/NC(=O)c1cc(-c2ccccc2)nc2ccccc12)=C\c1ccco1,-3.6%,-0.8,4.3,2,2%,14%
CCOC(=O)N1CCN(C(=O)c2cccc(N3C(=O)NC4CC3(C)Oc3ccc(Cl)cc34)c2)CC1 (configuration not stated),-0.9%,-0.3,·,-1,?,-7%
CCc1nnc(NC(=O)[C@@H](NC(=O)c2cccc(S(=O)(=O)N3CCOCC3)c2)C(C)C)s1,-1.6%,1.4,1.5,-13,26%,-8%
Cc1cc(C)cc(NC(=O)CSCc2cc(=O)c3ccc(C)c(C)c3[nH]2)c1,-2.2%,4.3,·,8,·,·
O=C(c1cc(-c2cccc(O)c2)on1)N1CCCC1,·,0.9,-6.7,85,-29%[15.4 µM],-13%
CCCCN(CCCNc1ncnc2nc[nH]c12)c1ccccc1,-1.3%,1.6,0.1,-3,-17%,0%
CCN1C(=O)[C@@H]2[C@@H](c3ccc(-c4ccc(OC)cc4)c(OC)c3)N3CCCC[C@@]3(C(=O)OC)[C@@H]2C1=O,?,-0.9,·,-5,-2%,-4%
CC(C)c1nn2c(=O)cc(COC(=O)C3CCCCC3)nc2s1,-1.3%,-1.0,·,-8,·,·
COc1cccc(OC)c1NC(=O)Cn1nc(C)c2ccccc2c1=O,?,-1.3,-1.2,-2,1%[15.4 µM],5%
Cc1noc(COc2ccc(OCc3nc(C)no3)cc2)n1,-0.8%,5.7,-0.4,-7,14%,4%
COc1cccc(C2c3[nH]c4ccccc4c3C[C@H]3C(=O)N(CCCO)CC(=O)N23)c1OC (some centres not stated),-1.0%,0.0,2.4,11,-1%,-2%
CC1CCCCC1NC(=O)CN(C)S(=O)(=O)c1ccc2c(c1)CCC(=O)N2 (configuration not stated),1.2%,-0.6,·,-9,15%,14%
O=C(Nc1nc2ccccc2[nH]1)C1CCCC1,·,0.7,7.3,25,9%[15.4 µM],0%
C[C@H](CO)N1C[C@H](C)[C@@H](CN(C)S(=O)(=O)c2cn(C)cn2)Oc2ncc(Br)cc2C1=O,-0.6%,-0.1,·,2,?,·
COc1ccc(S(=O)(=O)Nc2cc3c(cc2C(C)=O)OCO3)cc1,-0.3%,1.0,0.4,20,-19%,7%
Cn1c(SCc2ccc(Cl)cc2)nc(C(F)(F)F)cc1=O,0.3%,4.3,0.1,15,3%,5%
# (next part)
SMILES,ClpP mod,TRPML1 agonist,Menin-MLL FL inh,TRPML1 inh,gsp agonist,gsp antag
CC(=O)c1ccc(S(=O)(=O)Nc2cccc(-c3ccc(N4CCOCC4)nn3)c2)cc1,-3.7%,0.7,·,-3,13%,-15%
CC(=O)N1CCc2cc(S(=O)(=O)C(C)CC(=O)Nc3ccc(OC(F)(F)F)cc3)ccc21 (configuration not stated),-0.6%,-0.8,-0.1,1,-3%,-5%
CCn1c(-c2ccccc2Cl)nn(CC(=O)Nc2cc(Cl)ccc2Cl)c1=S,-2.2%,1.6,1.6,23,-5%,-17%
CCOC(=O)c1c(C)c(-c2ccccc2)n(CC(=O)Nc2cccc(F)c2)c1C,-1.7%,0.2,·,12,·,·
CC(C)(C)NC(=O)CSc1nnc(-c2ccccn2)n1Cc1ccccc1,·,1.0,0.8,14,12%[15.4 µM],1%
NC(=S)Nc1nccc(-c2cccs2)n1,4.2%,-0.8,-4.6,-2,-8%,14%
Cc1ccc2c(Cl)c(C)c(N3CCOCC3)nc2n1,·,0.6,·,-3,3%,7%
Cc1cc(C)c(/C=C/c2onc(C)c2S(=O)(=O)N2CCC(C(=O)NCc3ccco3)CC2)c(C)c1,-7.3%,0.2,·,12,·,·
CC(=O)Nc1ccc(S(=O)(=O)NCC2CCC(C(=O)NCCC(C)C)CC2)cc1 (configuration not stated),0.0%,0.4,5.8,6,0%,6%
CC(=O)Nc1ccc(S(=O)(=O)Nc2nc3cc4c(cc3nc2Cl)OCCO4)cc1,·,1.2,2.1,-4,54%[15.4 µM],23%
Nc1nc(F)nc2c1ncn2[C@@H]1O[C@H](CO)[C@@H](O)[C@H]1O,0.8%,-0.9,-2.2,-14,·,-12%
O=c1[nH]c2ccccc2c(O)c1SCCO,·,0.4,-0.2,1,-45%[inhibitor],7%
O=S(=O)(CCSc1ccc(C(F)(F)F)cn1)c1ccccc1,1.2%,-0.6,5.7,-2,-25%,0%
